Choline anaer gr = growth inhibitors of anaerobic choline-fed gram-negatives, minimal medium, absorbance | Gram-negative bacterium anaerobic choline minimal medium; hits give low values; many inactives read as strong as hits in the columns shown | calls only | 55,000 compounds, 0.2% hits | AID 1963822, 2024;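 active = growth z-score on choline under -2 at 7 or 20 h with little or no fall on glycerol, limits in tiers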;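 note: stock transfer was 300 nL into about 50 µL; the organism is E. coli; final concentration not given here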
Choline anaer gr early = also measured in Choline anaer gr; calls as there; z-score; measured here: choline growth z-score, timepoint 1;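 score of optical density at 7 h as mean of two plates; lower means less growth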
* marks the source's active call; other numbers are inactive results; i = inactive; & = joins results of further samples. This is a subset; count on the stated rates, not on these rows.

SMILES | Choline anaer gr | Choline anaer gr early
CCCS(=O)(=O)c1nc2ccc(NS(=O)(=O)c3ccc(F)c(F)c3)cc2s1 | i | -0.16
COc1ccc(Oc2c(C(F)(F)F)oc3cc(OC(=O)C4CCCO4)ccc3c2=O)cc1 (configuration not stated) | i | 0.12
CCCCOc1ccc(-c2cc3c(=O)n(CC(=O)Nc4ccc(C)cc4)ccn3n2)cc1 | i | -0.31
Cc1ccc(-c2noc3ncnc(N4CCN(C)CC4)c23)cc1 | i | -0.3
COc1ccc(-c2nc(CCNC(=O)COc3ccc(C(C)C)cc3)cs2)cc1 | i | 2.33
CC(Cc1ccccc1)Nc1nc2c(S(=O)(=O)c3ccccc3)nnn2c2ccsc12 (configuration not stated) | i | 0.09
CCOC(=O)c1c(NC(=O)CS(=O)(=O)c2ccc(C)cc2)sc2c1CCCCC2 | i | 1.2
CC(C)N1CCN(Cc2nc(-c3ccc(N4CCSCC4)nc3)no2)CC1 | i | -1
CCCC(=O)Nc1ccc2c(c1)nc(Cn1ccnc1C)n2CCC | i | 0.31
Cc1cc2c3c([nH]c2cc1S(=O)(=O)N1CCc2ccccc2C1)CCCC3=O | i | 0.6
CCC(C)NC(=O)c1cc(-c2ccncc2)n(-c2ccccc2)n1 (configuration not stated) | i | -1.55
CCN(Cc1ccccc1)c1ccc(NC(=O)c2ccccc2F)cc1C(=O)O | i | -1.17
O=C(CCc1nc2sc3c(c2c(=O)[nH]1)CCCCC3)N1CCc2ccccc2C1 | i | 1.17
O=C(NCc1ccnc(N2CCSCC2)c1)Nc1ccc(F)cc1F | i | -1
COC(=O)c1cc(OC)c(OC)cc1NC(=O)c1c(C)oc2ccc(OC)cc12 | i | -0.03
CCN1C(C(=O)c2ccccc2)=C(OC(=O)CN2C(=O)CCC2=O)c2ccccc2S1(=O)=O | i | -0.27
CCCCC1CCC(C(=O)Nc2ccc3c(c2)NC(=O)CO3)CC1 (configuration not stated) | i | -0.38
CCc1nc(-c2csc(S(=O)(=O)N3CCC(C(=O)NC4CC4)CC3)c2)no1 | i | 1.79
CN(C)c1ncc(C(=O)Nc2cccc(Cl)c2)cn1 | i | 0.01
CCOc1ccc2oc(C)c(C(=O)Nc3cccc(OC)c3)c2c1 | i | 0.86
O=C(NCc1ccccc1)c1cccc(NC(=O)c2nnc(COc3ccccc3)s2)c1 | i | 0.91
COc1ccc(C2CC(=O)Nc3c2c(C)nn3-c2nncc(-c3ccc(C)cc3)n2)cc1OC(C)C (configuration not stated) | i | -1.29
CCOC(=O)C1CCCN(c2ncc(S(=O)(=O)c3ccccc3)c(N)n2)C1 (configuration not stated) | i | 0.18
CCOC(=O)c1noc2ncn(CC(=O)OC)c(=O)c12 | i | -1.25
O=c1oc2cc(O)cc(O)c2c2c1CCCC2 | i | 0.68
CCOC(=O)c1[nH]c(C)c(CN(Cc2ccc(OC)cc2)S(=O)(=O)c2ccc(C(C)C)cc2)c1C | i | 0.09
O=S(=O)(Nc1ccc2nncn2n1)c1ccc(Cl)cc1 | i | -0.5
O=S(=O)(c1cccn2c(SCc3cccc(F)c3)nnc12)N1CCCCC1 | i | -0.15
COc1ccc(C2CC(c3c(O)n(C)c(=S)n(C)c3=O)=NN2C(C)=O)cc1OC (configuration not stated) | i | -1.47
COc1ccc(CNC(=O)c2ccc(CN3CC(=O)N4CSCC4C3=O)cc2)cc1 (configuration not stated) | i | -1.75
Cc1cccc2c1cnn2C(=O)CCC(=O)N1CCc2ccccc2C1 | i | 0.83
Cc1cc(N2CCN(Cc3ccccc3)CC2)n2ncc(-c3ccc(F)cc3)c2n1 | i | -0.13
COc1cccc(NC(=O)N2CCC3(CC2)CC(=O)c2ccccc2O3)c1 | i | -0.24
CCc1ccc(S(=O)(=O)N2CCCC(C)(C(=O)NCc3ccc(F)cc3)C2)cc1 (configuration not stated) | i | 2.71
CCN(CC)CCn1c(NCc2ccc(Br)cc2)nc2ccccc21 | i | -0.59
CCCCOCCCNCc1ccc2c(c1)n(C)c(=O)n2C | i | 0.02
O=C(O)c1cccc(NC(=O)c2cc3c([nH]c2=O)CC(c2ccccc2)CC3=O)c1 (configuration not stated) | i | -1.38
CCOC(=O)c1sc2ccccc2c1S(=O)(=O)N1CC=C(c2ccccc2)CC1 | i | 2.77
CCCc1ncc(C[n+]2ccccc2C)c(N)n1 | i | 0.01&-0.21
Cc1ccc(C)c(N2CCN(C(=O)CCc3c(C)n(C)c4cc(-c5ccccc5C)nn4c3=O)CC2)c1 | i | -1.11
Cc1ccc(C)c(N2CCN(C(=O)C3CCN(c4nc(-c5ccccc5C)no4)CC3)CC2)c1 | i | 1.08
Cc1cccc(N2CCN(C(=O)C3CCN(c4nc5ccccc5n5cccc45)CC3)CC2)c1C | i | 0.41
Cc1cccc(-n2ccc(=O)c(C(=O)Nc3cccnc3)n2)c1 | i | -1.55
O=C(Cc1csc(NC(=O)Nc2ccccc2)n1)NC1CCCCC1 | i | -0.77
CCSc1ccccc1C(=O)Nc1nc2ccc(S(N)(=O)=O)cc2s1 | i | 3.21
COc1ccc(-c2noc(-c3cccnc3NC3CCCC3)n2)cc1 | i | 0.86
CCC(Sc1nc2ncccc2[nH]1)C(=O)Nc1ccc(Cl)cc1 (configuration not stated) | i | 0.64
CCn1nccc1-c1csc(S(=O)(=O)N2CCCC2)c1 | i | -0.96
Cc1ccc2nc(NCCc3ccccc3)c3nnnn3c2c1 | i | 0.51
CC1(O)CCC(C(C)(C)O)CC1 (configuration not stated) | i | 0.07

6 entries drawn at random from those above:
SMILES | Choline anaer gr | Choline anaer gr early
CCc1nc(-c2csc(S(=O)(=O)N3CCC(C(=O)NC4CC4)CC3)c2)no1 | i | 1.79
O=C(CCc1nc2sc3c(c2c(=O)[nH]1)CCCCC3)N1CCc2ccccc2C1 | i | 1.17
Cc1cccc(-n2ccc(=O)c(C(=O)Nc3cccnc3)n2)c1 | i | -1.55
O=S(=O)(Nc1ccc2nncn2n1)c1ccc(Cl)cc1 | i | -0.5
CCOC(=O)C1CCCN(c2ncc(S(=O)(=O)c3ccccc3)c(N)n2)C1 (configuration not stated) | i | 0.18
CCN(CC)CCn1c(NCc2ccc(Br)cc2)nc2ccccc21 | i | -0.59

Additional records.
SMILES | Choline anaer gr | Choline anaer gr early
Cc1noc(C)c1CC(=O)N1CCC(Oc2cc(N(C)C)ncn2)C1 (configuration not stated) | i | 0.68
CCC(=O)N1CCc2c(c(C(=O)N3CCC(C(=O)NCc4ccc(F)cc4)CC3)nn2C)C1 | i | -0.67
Cc1cc(-c2ccc(C)c(S(=O)(=O)CCC(=O)N3CC=C(c4ccccc4)CC3)c2)on1 | i | 0.07
CCOC(=O)c1ccccc1NC(=O)Cn1cc(C(=O)c2ccc(F)cc2)c(=O)c2ccc(C)nc21 | i | 0.32
O=C(Nc1cc(Cl)ccc1O)c1cc(-c2ccc(F)cc2)on1 | i | 0.4
CN(C)C(=O)c1ccc2c(c1)N(CC(=O)NCCCN1CCCCC1)C(=O)C1CCCCN21 (configuration not stated) | i | -1.22
COc1ccc(-c2cnn3c(C)cc(C)nc23)cc1S(=O)(=O)NCc1ccc2c(c1)OCO2 | i | -0.91
CC(C)Cc1nnc(NC(=O)c2cc(-c3ccc4c(c3)CC(C)O4)on2)s1 (configuration not stated) | i | 1.61
O=C(CN1c2ccccc2NC2=C(C(=O)CCC2)C1c1ccco1)NC1CCCCC1 (configuration not stated) | i | -0.61
CN(CCc1noc(-c2cc3ccccc3[nH]2)n1)C(=O)c1ccc(N(C)C)cc1 | i | 0.11
Cc1oc2ncn(CC(=O)NCCC(C)C)c(=O)c2c1C | i | -0.49
CCNc1nc(C(N)=O)c(NC(=O)c2cc(-c3ccc(F)cc3)n(C)c2C)s1 | i | -1.44
O=C(NC1CCCCC1)c1ccc2c(=O)nc3c(-c4cccc(F)c4)n[nH]n3c2c1 | i | -2.4
Cc1ccc(Cl)cc1S(=O)(=O)N1CCC(c2nc3c(nnn3Cc3ccc(F)cc3)c(=O)[nH]2)CC1 | i | -0.31
CCOC(=O)Cc1csc(-n2nc(C)c(Cc3ccc(C)cc3)c2C)n1 | i | -0.26
CCOC(=O)c1c(C)n(C)c2ccc(OCC(O)CN3CCCCC3C)cc12 (configuration not stated) | i | -0.27
O=C(Nc1ccc(Cl)cc1)c1ccc(-n2cnc3cccnc32)cc1 | i | 1.37
CCCNC(=O)N1CCC2(C1)C(=O)Nc1ccccc12 (configuration not stated) | i | -1.96
Cc1cc(C)n2ncc(C(=O)NC3CCCCC3)c2n1 | i | 0.32
COc1ccc(NC(=O)N2CCCC2c2ccc(Cl)cc2)cc1OC (configuration not stated) | i | -0.19
Cc1nnc(NC(=O)c2ccc(=O)n(Cc3ccc(Cl)cc3)c2)s1 | i | -1.11
CCC(C)(C)NS(=O)(=O)c1ccc2c(c1)CCN2C(=O)CCC(=O)N1CCOCC1 | i | -0.24
CCC(C(=O)NCCOC)N1CCN(Cc2ccc(F)cc2)C(=O)C1=O (configuration not stated) | i | 0.77
CCOc1ccc(NC(=O)Cn2nc3c4sccc4ncn3c2=O)cc1 | i | 0.26
CC(C)(C)C1CCc2c(sc3nc(CCC(=O)NCc4ccccn4)[nH]c(=O)c23)C1 (configuration not stated) | i | -0.43
O=C(NC1CCCC1)c1cn2c(n1)COCC2 | i | -1.63
Cc1nc2c(-c3ccc(F)cc3)c(C)nn2c(C)c1CC(=O)N1CCC(C)CC1 | i | 0.56
Cc1ccccc1-c1nc2scc(CCNC(=O)c3ccc4c(c3)OCO4)n2n1 | i | -0.32
c1ccc(-c2noc(-c3cccnc3)n2)cc1 | i | -1.06
Cc1cc(=O)n2[nH]c(CNc3ccc(F)cc3)nc2n1 | i | -0.09

An excerpt from above in order of the Choline anaer gr early value, descending:
smiles | Choline anaer gr early
Cc1nc2c(-c3ccc(F)cc3)c(C)nn2c(C)c1CC(=O)N1CCC(C)CC1 | 0.56
CCOc1ccc(NC(=O)Cn2nc3c4sccc4ncn3c2=O)cc1 | 0.26
Cc1cc(=O)n2[nH]c(CNc3ccc(F)cc3)nc2n1 | -0.09

The results go on.
SMILES | Choline anaer gr | Choline anaer gr early
O=C(NCc1nc2cccnc2n1Cc1ccccc1)C1CCC1 | i | 0.65
Cc1nn2c(-c3ccc4c(c3)OCO4)ccnc2c1-c1ccccc1 | i | -1.16
CC(C)OC(=O)Cn1nc2ccc(S(=O)(=O)N3CCSCC3)cn2c1=O | i | -0.78
Cc1ccc(NC(=O)C2CCN(S(=O)(=O)c3ccc4c(c3)C(C)(C)C(=O)N4C)CC2)cc1C | i | -0.21
CCOC(=O)c1[nH]c(C)c(CCC(=O)N2CCCC(C(=O)NC3CCCC3)C2)c1C (configuration not stated) | i | -0.43
O=C(C1CC1)N1Cc2c(sc3c2CCCC3)-n2cccc2C1c1ccc(Cl)cc1 (configuration not stated) | i | 1.18
Cc1ccc(CNC(=O)COc2ccc(-c3cnc4ccccc4n3)cc2)cc1 | i | -0.08
Nc1ncnc2c1nc(Br)n2[C@@H]1O[C@@H]2COP(=O)(O)O[C@H]2[C@H]1O | i | -0.46
CC(C)CCN1C(=O)c2cc3sccc3n2CC1(C)C(=O)NC1CCCCC1C (configuration not stated) | i | -0.51
COc1cccc(NC(=O)C2CCN(S(=O)(=O)c3ccc4[nH]c5c(c4c3)CCCCC5)CC2)c1 | i | 0.58
CCC1Cn2c(C(=O)NCCc3c(C)nn(CC)c3C)cc3c(Cl)ccc(c32)O1 (configuration not stated) | i | 0.97
O=C(NC1CCCCC1)N1CCCN(C2CCN(Cc3ccc(F)cc3)C2=O)CC1 (configuration not stated) | i | -0.39
CCOC(=O)c1cnn(-c2ccc(C(=O)N3CCC(C(=O)OCC)CC3)cc2)c1N | i | 1.63
O=C(c1ccc(Cl)cc1)N1CCC(c2nc3ccccc3o2)CC1 | i | 0.06
Cc1ccc2[nH]c3c(=O)n(Cc4ccccc4)cnc3c2c1 | i | 1.09
O=C(NC1CCCC1)c1ccc2ccnc(N3CCN(c4ccc(Cl)cc4)CC3)c2c1 | i | 0.11
CC1(C)CN(CC(=O)N2CCCC2)c2ccc(S(=O)(=O)NCCc3cccs3)cc21 | i | 0.74
Cn1c(N2CCN(C(=O)CC3CCCC3)CC2)cc(=O)n(C)c1=O | i | 0.27
CC(C)OC(=O)CCCC=CCC1C(O)CC(O)C1CCC(O)CCc1ccccc1 (configuration not stated) | i | 0.25
COc1ccc(CCn2cnc3c([nH]c4ccc(F)cc43)c2=O)cc1OC | i | 1.1

Reformatted with tabs: 7 of the compounds above.
mol	Choline anaer gr	Choline anaer gr early
Cc1ccc2[nH]c3c(=O)n(Cc4ccccc4)cnc3c2c1	i	1.09
CC1(C)CN(CC(=O)N2CCCC2)c2ccc(S(=O)(=O)NCCc3cccs3)cc21	i	0.74
COc1ccc(CCn2cnc3c([nH]c4ccc(F)cc43)c2=O)cc1OC	i	1.1
O=C(NC1CCCCC1)N1CCCN(C2CCN(Cc3ccc(F)cc3)C2=O)CC1 (configuration not stated)	i	-0.39
CCC1Cn2c(C(=O)NCCc3c(C)nn(CC)c3C)cc3c(Cl)ccc(c32)O1 (configuration not stated)	i	0.97
Cn1c(N2CCN(C(=O)CC3CCCC3)CC2)cc(=O)n(C)c1=O	i	0.27
O=C(c1ccc(Cl)cc1)N1CCC(c2nc3ccccc3o2)CC1	i	0.06

More compounds:
SMILES | Choline anaer gr | Choline anaer gr early
CC1CCCN(CCCNC(=O)c2nn(C)c3c2CCc2sccc2-3)C1 (configuration not stated) | i | -0.85
CCOC(=O)c1noc2ncn(C(CC)C(=O)N3CCCCC3)c(=O)c12 (configuration not stated) | i | -0.08
COc1ccc(NS(=O)(=O)c2cc(-c3nnc(C(=O)N4CCCC4)o3)sc2C)cc1OC | i | -1.06
Cc1cc2oc3c(c(=O)c2cc1C)C(c1cccc(Oc2ccccc2)c1)N(CCCN(C)C)C3=O (configuration not stated) | i | -0.4
CNC(=O)N(C)CCc1noc(C(=O)NCc2ccc(Cl)cc2)n1 | i | -0.51
CCN(CC)c1nc2ccsc2c(=O)n1CC(=O)NCCC(C)C | i | 1.01
CCC(C(=O)NC(C)C)n1cnc2onc(-c3ccc(Cl)cc3)c2c1=O (configuration not stated) | i | 0.43

Bioassay records as filed in PubChem BioAssay.
